Screening data deposited in PubChem BioAssay by Fisher Drug Discovery Resource Center.
NPYLR7 ag: mosquito NPYLR7 agonism. 0.15% of 270,000 active. AID 1259423. activation, % at 10 µM. HEK293T NPYLR7/Galpha15, GCaMP6s calcium fluorescence; in the data active = activation above about 40%;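 note: 0% = vehicle and 100% = reference agonist at the receptor; some compounds past the cut are filed as inactive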
NPYLR7 ag max-min: second read-out of NPYLR7 ag, no call of its own (marks repeat the call); activation, %; measured here: Max-Min RFU normalised activation; some inactives read as strong as hits;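 span of the calcium signal over five minutes; 0% = vehicle and 100% = native peptide agonist; compound fluorescence can raise it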
Starred values were filed as active, the others as inactive; & = joins results of further samples. These rows are one share of the data; count on the stated rates, not on these rows.

SMILES | NPYLR7 ag | NPYLR7 ag max-min
CN1CC2([N+](=O)[O-])C=C(Oc3ccccc3)CC([N+](=O)[O-])(C1)C2 (stereo not given) | -1.6 | -4.8
O=S1(=O)c2cccc3cccc(c23)N1Cc1cccc2ccccc12 | 1.2 | -0.8
CC(C)N1CCC1(C)C(=O)Nc1nc2ccccc2[nH]1 (stereo not given) | 7.4 | 2.8
CN(C)C=Nc1cc(=O)n(-c2ccccc2)[nH]1 | -0.8 | 8.2
NC(=O)C1CC(O)CN1C(=S)Nc1ccc(Cl)cc1Cl (stereo not given) | 8.4 | 6.2
C=CCCC(O)CN(Cc1ccccc1)Cc1nc2scc(-c3ccccc3OC)c2c(=O)[nH]1 (stereo not given) | 10.1 | 9.8
CCn1c(SCC(=O)Nc2ccc(C)cc2)nc2c(-c3ccccc3)c[nH]c2c1=O | -1.5 | -3.0
C=C(Cl)CNC(=O)Nc1cccc(NC(=O)CCC)c1 | -0.8 | 69.8
COc1cccc(CN2CCN(c3ccc(F)c(Cl)c3)C(=O)C2C)c1 (stereo not given) | 2.1 | 2.6
O=C(/C=C/c1ccccc1)Nc1ccc2c(c1)N(C(=O)c1ccccc1)CCC2 | -1.9 | -3.9
C=CCC(O)(CC=C)c1ccc(CN(CCCOC)Cc2ccccc2OC)o1 | -10.2 | -8.8
Cc1c(N2C(=O)CSC2c2ccco2)c(=O)n(-c2ccccc2)n1C (stereo not given) | -17.9 | -24.6
O=C1OCCC1Sc1nc2ccc(Cl)cc2c(=O)n1-c1ccc(F)cc1F (stereo not given) | 1.3 | 5.0
CCC1CN(C(=O)c2ccc3[nH]c(=O)[nH]c3c2)CCC(=O)N1Cc1ccccc1 (stereo not given) | 1.6 | 0.6
Cc1nonc1CC(=O)NC(C)c1cnn(-c2cccc3ccccc23)c1C (stereo not given) | 7.7&-0.1 | 1.1&-3.0
O=S(=O)(NCc1cccc(N2CC=CC2)c1)c1cncc(F)c1 | 1.3 | 0.0
Cc1nn2cc(-c3ccccc3)cc2c2c(C)n(C)c(C)c12 | -9.1 | -15.6
O=S1(=O)CCCC(CN2CC(c3cccnc3)C2)C1 (stereo not given) | 9.3 | 5.5
COc1ccccc1CCN1CC(=O)C(c2nc(C(C)(C)C)cs2)C1=N (stereo not given) | 6.9 | 4.4
O=C(Nc1ccc(N2CCOCC2)nc1)c1csc(-c2cccs2)n1 | 3.4 | 1.4
O=c1[nH]nc(Cc2ccccc2)c2ccccc12 | -6.1 | -10.1
O=C(NCCn1nc(-c2ccc(Cl)cc2)ccc1=O)C(c1ccccc1)c1ccccc1 | -0.4 | -1.3
CCN1C(=O)N(C2Cc3ccccc3C2)C(=O)C12CCN(Cc1ccc3c(c1)OCCO3)CC2 | 9.0 | -2.3
Cc1nc(CNCc2cccc(OCC3CCCCC3)c2)n[nH]1 | 3.6 | 2.8
Cc1ccc2c(c1)c(=O)[nH]c1c(-c3nc4ccccc4s3)c(O)cn12 | 7.7 | 7.3
The listing continues:
SMILES | NPYLR7 ag | NPYLR7 ag max-min
Cc1ccc(-n2nc(C(C)(C)C)cc2NC(=O)CN(CC(C)C)C(=O)Nc2ccc(F)c(Cl)c2)c(C)c1 | 10.6 | 13.5
Cc1noc(CNc2ccc3c(c2)N(C(=O)C(C)(C)C)CCO3)n1 | 2.7 | 3.9
CCNC(=O)C1(C)CCCN(CCOc2ccc(OC)cc2)C1 (stereo not given) | -6.7 | -6.1
CCOc1ccc(C(=O)Oc2coc(CSc3nccn3C)cc2=O)cc1OCC | -5.6 | -7.4
COc1ccc(Cn2cc(C(=O)N3CCC(CCc4ccccc4)CC3)nn2)cc1 | 8.1 | 1.1
COc1ccc(-c2nc3scc(CCNS(=O)(=O)c4cc(C)ccc4OC)n3n2)cc1OC | -1.8 | -2.9
Cc1ccnc(NC(=O)c2csc(-c3cc4ccccc4n3C)n2)c1 | -0.6 | -3.2
COc1cccc(-n2c(CCCO)nc3ccccc32)n1 | 4.9 | 4.9
CC(c1ccc2ccccc2c1)N(C(=O)CSCC#N)C1CC1 (stereo not given) | 3.4 | 0.5
O[C@@H]1CN(Cc2ccc3c(c2)OCO3)CC[C@H]1c1ccc2c(c1)OCO2 | 1.7 | 1.0
Cc1nc(C(C)C)cc(N2CCCC(OCc3ccccn3)C2)n1 (stereo not given) | -8.5 | -13.4
N#CC1(c2nc(COC3CCOCC3)no2)CCCCC1 | 3.4 | 3.6
Cc1[nH]c2ccccc2c1SCC(=O)N1CCCCC1 | 0.9 | -0.8
O=C(N1CCC(c2[nH]ncc2-c2ccccc2)CC1)C1(Cn2cccn2)CC1 | 2.4 | 0.1
CC(=O)c1ccc(S(=O)(=O)NCCC(=O)Nc2ccc3c(c2)CCC3)cc1 | -1.1 | -1.1
CCCCc1ccc(-c2nc(C=Nc3ccc(I)cc3)c(O)o2)cc1 | 0.2 | -6.6
Cc1[nH]n(-c2ccccc2)c(=O)c1C1=C(N2CCC(C)CC2)C(=O)N(c2ccc(F)cc2)C1=O | 39.9 | 25.2
N#CCCN(CC1CCC1)c1ncnc2ccccc12 | -3.5 | 234.1
O=C(NC(n1cnc2c(N3CCCCC3)ncnc21)C(Cl)(Cl)Cl)c1ccccc1 (stereo not given) | -11.2 | -0.5
Cc1ccccc1CN1CCN(c2ccc(-c3ccccc3)cc2)C(=O)C1C (stereo not given) | 5.1 | 10.8
CCOc1ccc2nc3n(c2c1)CC(O)CS3 (stereo not given) | 13.6 | 5.6
CCCN(CCC)c1ccc(C2Nc3ccccc3-c3nnc(SCC)nc3O2)cc1 (stereo not given) | -10.0 | -12.0
COCCNC(=O)c1cc(NC(=O)c2ccccc2OC)ccc1N1CCC(Cc2ccccc2)CC1 | 15.1 | 10.7
Cn1nnc2c(=O)n(CC(=O)N3CCc4ccccc43)cnc21 | 0.9 | 12.5
N#CCSc1ccccc1NC(=O)CSc1ccc(F)c(Cl)c1 | 15.8 | 13.2

Single records, from the list above:
Profile of CC(C)N1CCC1(C)C(=O)Nc1nc2ccccc2[nH]1 (stereo not given) = NPYLR7 ag: 7.4; NPYLR7 ag max-min: 2.8
Profile of O=S(=O)(NCc1cccc(N2CC=CC2)c1)c1cncc(F)c1 = NPYLR7 ag: 1.3; NPYLR7 ag max-min: 0.0

More records follow:
SMILES | NPYLR7 ag | NPYLR7 ag max-min
CCOC(=O)c1ccccc1NC(=O)Cn1cc(OC)c(=O)cc1CSc1nc(C)cc(C)n1 | -5.3 | -12.6
COCCn1ccc2nc3ccn(Cc4ccccc4)c(=O)c3cc2c1=O | -1.5 | 2.1
CC(=O)Nc1ccc(NC(=O)C(C)Oc2ccc(F)cc2)cc1 (stereo not given) | -6.1 | -6.3
CCN1CC(c2nc3ccccc3n2Cc2ccccc2F)CC1=O (stereo not given) | 12.2 | 16.5
CCN(CC)C(=O)Oc1ccc2c(ccn2Cc2cc(Cl)ccc2Cl)c1-c1ccc(OC)cc1 | 12.8 | 0.5
C=CCn1c(SCc2cc3c(cc2Cl)OCO3)nnc1-c1cc(-c2ccccc2)nc2ccccc12 | -8.5 | -14.5
Cc1cc2ncn(CC(NC(=O)C3CC3c3cccnc3)C3CC3)c2cc1C (stereo not given) | -1.3 | -1.2
COc1cc(CC(CN)CO)cc(OC)c1 (stereo not given) | 0.3 | -7.6
CCN(CCO)C(=O)c1coc(COc2ccc(F)cc2Cl)n1 | -1.9 | -2.1
CC1Oc2ccc(-c3cccc(F)c3)cc2N(c2ccccc2)C1=O (stereo not given) | 3.2 | 0.8
Cn1cc(CNCC2(N3CCOCC3)CCCC2)c(-c2ccc3c(c2)OCCO3)n1 | -6.2 | -10.3
COc1ccc(NC(=O)c2ccc(OC)c([N+](=O)[O-])c2)cc1OC | 6.8 | 3.6
CCOC(=NCc1ccccn1)NC(=O)c1ccc(Cl)c(Cl)c1 | -1.0 | 5.9
Cc1cc(=O)[nH]c(SCCOCCSc2ccc(Cl)cc2)n1 | -4.8 | 6.2
CC(C)(C)C(=O)C=C(NNc1nc(-c2ccccc2)c2cc(Br)ccc2n1)C(F)(F)C(F)(F)C(F)(F)F | 11.1 | 5.1
COc1ncc(CN(C)Cc2ccc(C)o2)cn1 | -4.4 | -4.7
c1ccc2oc(NC3=NCN(CCN4CCOCC4)CN3)nc2c1 | 2.6 | -1.6
Cc1nc2n(n1)C(=O)C(C(c1ccc([N+](=O)[O-])cc1)N1CCCCC1)S2 (stereo not given) | 2.6 | 0.1
COc1ccc(Cl)cc1C(=O)NCCc1ccc(S(=O)(=O)NC(=O)NC2CCCCC2)cc1 | -2.8&-20.3&-2.5&-3.3 | -8.4&-25.0&-23.8&-7.5
Cc1ncc(Cl)c(C(=O)N2CC(C)C(N3CCOCC3)C2)n1 (stereo not given) | -2.4 | -6.3
CCOCCCNC(=O)c1cnc2nc3ccccc3n2c1N | -9.9 | -21.4
Cc1nc2ccc(C(=O)Nc3ccc(Cl)cc3F)cc2nc1C | 2.5 | -2.4
CC(=O)Nc1ccc(S(=O)(=O)Oc2ccc(CN(CC(C)C)C(=O)c3cccc(F)c3)cc2)cc1 | 12.6 | 13.8
CN(Cc1nc(-c2ccc(C(F)(F)F)cc2)no1)C1CCOCC1 | -1.8 | -4.7
C=CCN1C(=O)NC(c2cccc(Cl)c2)C2=C1CN(CC(=O)NCCc1ccc(Cl)cc1Cl)C2=O (stereo not given) | -2.3 | -4.9

Four of the compounds above, in markdown.
| canonical_smiles | NPYLR7 ag | NPYLR7 ag max-min |
| --- | --- | --- |
| Cc1nc2n(n1)C(=O)C(C(c1ccc([N+](=O)[O-])cc1)N1CCCCC1)S2 (stereo not given) | 2.6 | 0.1 |
| CCC1CN(C(=O)c2ccc3[nH]c(=O)[nH]c3c2)CCC(=O)N1Cc1ccccc1 (stereo not given) | 1.6 | 0.6 |
| CC(C)N1CCC1(C)C(=O)Nc1nc2ccccc2[nH]1 (stereo not given) | 7.4 | 2.8 |
| C=CCC(O)(CC=C)c1ccc(CN(CCCOC)Cc2ccccc2OC)o1 | -10.2 | -8.8 |

Molecules listed so far containing a nitro group on carbon:
SMILES | NPYLR7 ag | NPYLR7 ag max-min
CN1CC2([N+](=O)[O-])C=C(Oc3ccccc3)CC([N+](=O)[O-])(C1)C2 (stereo not given) | -1.6 | -4.8
COc1ccc(NC(=O)c2ccc(OC)c([N+](=O)[O-])c2)cc1OC | 6.8 | 3.6
Cc1nc2n(n1)C(=O)C(C(c1ccc([N+](=O)[O-])cc1)N1CCCCC1)S2 (stereo not given) | 2.6 | 0.1

Other structures.
SMILES | NPYLR7 ag | NPYLR7 ag max-min
CCOC(=O)C1=C(C)N(C)C(=O)NC1c1cccs1 (stereo not given) | 2.1 | 0.6
CCc1nc(N(CCC(=O)Nc2ccc(F)cc2)CCc2ccccc2)c2ccccc2n1 | -3.9 | 8.2
CCOC(=O)c1nnc(-c2ccccc2)nc1C(=O)OCC | -5.3 | -8.1
C=Cc1ccc(COC(=O)c2nnn(-c3ccc(Br)cc3)c2C)cc1 | 8.6 | -3.7
COc1ccc(CN2CCNC(=O)C2CC(=O)NCC(C)(C)CO)c(F)c1 (stereo not given) | 14.1 | 5.0
CN(Cc1ccccc1)CC(C)(C)NC(=O)/C=C/c1cccs1 | 2.6 | 2.9
CCOc1nn(CC)cc1-c1n[nH]c(=S)n1CCOC | -4.8 | -3.7
C=CCn1c(SCc2ccc(C(=O)NCc3ccc4c(c3)OCO4)cc2)nnc1-c1ccc(C)cc1 | 20.8 | 23.0
Cc1ccc(OCCCNC(=O)CNC(=O)C2CCCC2)cc1 | 2.8 | -0.1
COc1nc2ccccc2cc1-c1cnccc1N | 11.8 | 5.7
CCN(CC)C(=O)Oc1ccc2c(ccn2Cc2cc(C)cc(C)c2)c1NC(=O)c1ccc2c(c1)OCO2 | 5.6 | 0.5
Cc1cccc(C(=O)N(Cc2cc(N)ccc2N(C)C)CC2CCCO2)c1 (stereo not given) | -3.8 | -7.2
COc1ccccc1N1CCN(c2ccc(NC(=O)c3cccc([N+](=O)[O-])c3)cc2C(=O)NC(C)c2ccccc2)CC1 (stereo not given) | 17.9 | 16.5
CN(C)c1ccc(C(=O)NC2CCN(C(=O)c3ccncc3)C2)cc1 (stereo not given) | -2.9 | -2.8
N#C/C(=C\N1CCN(c2ccccc2)CC1)C(=O)NCc1ccccc1 | -4.7 | -3.0
Cc1nc2c(c(N(C)C)n1)CCN(C(=O)CN1C(=O)NC(=O)C1(C)C)C2 | 17.1 | 3.7
CCCCNC(=O)C1(C)CCCCCN1Cc1cc2ccccc2o1 (stereo not given) | 4.7 | 3.3
CC(Cc1cccs1)Nc1nc2nonc2nc1N1CCOCC1 (stereo not given) | 14.0 | 6.4
CC(NCc1nc2ccccc2c(=O)n1CC(N)=O)c1ccc2c(c1)OCCO2 (stereo not given) | 3.0 | 3.0
CC(C)c1ccc(-n2ccc3nc(N4CCCC4)ncc3c2=O)cc1 | 0.4 | 6.1
Cn1c(SCCCn2c(=O)[nH]c3ccccc32)nnc1-c1ccccc1 | -8.0 | -8.7
COc1cccc(-c2nc3ccc(C)cn3c2NC2CCCCC2)c1 | -17.9 | -5.2
COC(=O)C(c1ccccc1F)C1C=CC(NC(=O)c2ccc(SC(F)(F)F)cc2)C1 (stereo not given) | 2.9 | -0.5
Cc1nn2cc(CNC(=O)CCc3n[nH]c4c3CCCC4)nc2s1 | 10.7 | 9.9
CC1=C(C(=O)N2CCC(CCC(=O)Nc3ccc4c(c3)OCCO4)CC2)OCCO1 | 4.9 | 4.1
COC(=O)[C@@H](NC(=O)c1ccc2nc(C3CC3)oc2c1)c1ccccc1 | 3.0 | 0.3
COc1cc2c(cc1OC)CN(C1CCCN(C3CCN(C(C)C)CC3)C1)CC2 (stereo not given) | 2.3 | 0.7
CSc1nnc(C)c(=O)n1COC(=O)c1ccc(-c2ccccc2)cc1 | 0.9 | -2.7
COc1ccc(-c2nnc(SCc3ccc(F)cc3)o2)cc1 | -15.6 | -15.3
